Source: PubChem
HCMV NEC inh – cytomegalovirus nuclear egress complex inhibition; hit rate 0.15% among 190,000; inhibition, % (concentration not given with the values); HTRF UL50-UL53 interaction, normalized percent inhibition;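 active means both replicates at 50% or more, plus weaker picks with an unusually low signal ratio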;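 further: stock transfer was 100 nL into about 20 µL; 0% = negative control wells and 100% = wells with untagged competitor protein; inactives centre near -12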
* hit, by the source's call; & = joins results of further samples. An excerpt, so the mix of outcomes need not match the whole.

SMILES	HCMV NEC inh
CCCCc1nnc(NC(=O)CCCN2C(=O)/C(=C/c3ccccc3)SC2=S)s1	-14
Cc1cc2cc(CNC(=O)c3ccc(S(=O)(=O)N4CCCC4)cc3)ccc2n1C	-7
N#C/C(=C/C1=Cc2ccccc2OC1)S(=O)(=O)c1ccccc1	-1
CCC(=O)O[C@@]1(C(=O)CCl)C(C)C[C@H]2[C@@H]3CC(F)C4=CC(=O)C=C[C@]4(C)[C@]3(F)C(O)C[C@@]21C (some centres not stated)	-7
O=C(CCc1ccc(O)c(O)c1)N[C@@H](CC(=O)OCc1ccccc1)C(=O)OCc1ccccc1	-16&-16
OCCNc1ncnc2c1cnn2-c1ccccc1	-12
FC(F)(Cl)C(F)(F)Cl	-67
Nc1nc(-c2cccc(NS(=O)(=O)c3ccccc3)c2)cs1	-8
CCc1n[nH]c2c1CN(C(=O)c1cncc(C)c1)CC2	-5
CN(C)c1cnccn1	-52
CCCC1C(=O)N2C(N(C)C)=Nc3ccc(C)cc3N2C1=O (configuration not stated)	-107
Nc1nccc(Oc2ccc(NC(=O)c3c[nH]cc(-c4ccc(F)cc4)c3=O)cc2F)c1Cl	-1
CC(C)(C)N1COc2c(cc(Cl)c3cccnc23)C1	45
CC(C)Oc1cccc2c1CCN(Cc1ccccc1)C2=O	-4
O=C(Nc1nnc(SCc2ccccc2)s1)c1ccccc1Cl	-20
CC(C)CNc1cc(C(=O)NC2Cc3ccccc3C2)cc(S(=O)(=O)NC(C)C)c1	-12
COc1ccc2sc(C(=O)O)c(Br)c2c1	2
c1ccc2[nH]c(SCc3cn4ccccc4n3)nc2c1	3
COc1ccc(-c2[nH]ncc2C)cc1F	-1
COc1cc(F)c(C(C)C)cc1-c1ccc(C(F)(F)F)cc1CN1C(=O)OC(c2cc(C(F)(F)F)cc(C(F)(F)F)c2)C1C (configuration not stated)	9
N=C(N)N	9&-46
CC1CC(C(=O)O)C2CC[C@]3(C)C(=CC[C@H]4[C@@]5(C)CCC(O)C(C)(C)[C@@H]5CC[C@]43C)[C@H]2C1C (some centres not stated)	-34
CC1CC(OCC(O)CN2CCN(Cc3ccc(Cl)cc3)CC2)CC(C)(C)C1 (configuration not stated)	0
COC(=O)c1c(N2C(=O)C=CC2=O)sc2c1CCC(C(C)(C)C)C2 (configuration not stated)	6
CN(C)c1ccc(C(=O)Nc2nc(-c3ccccc3)cs2)cc1	0
Cc1ccc(S(=O)(=O)N2CCN(Cc3ccccc3)CC2)s1	3
N#CC1=C(SCC(=O)Nc2ccc(F)cc2)NC(=O)CC1c1ccc(F)cc1 (configuration not stated)	-15
Cc1ccccc1OCC(=O)Nc1ccc(S(=O)(=O)NC(C)(C)C)cc1	-3
NC(=NCCc1ccc(I)cc1)SCCCC1CNCN1 (configuration not stated)	-11
c1ccc(OCCn2c(-c3ccco3)nc3ccccc32)cc1	0&-9
CCCCn1nnnc1NC(=O)N1C2CCCCC1CCC2	-21
O=C1OC(Nc2nccs2)c2ccccc21 (configuration not stated)	-21
CCOc1ccc(C(=O)N=c2sc3cc(Cl)ccc3n2C)cc1	-2
CC(NC(=O)Cc1ccc(F)cc1)C(c1cccs1)N1CCOCC1 (configuration not stated)	-13
Cc1nc2sc(C(c3cccc(F)c3)N3CCOCC3)c(O)n2n1 (configuration not stated)	-19
COc1ccc(-c2csc3ncn(-n4c(C)ccc4C)c(=O)c23)cc1OC	-3

In another format: entries from further up
SMILES | HCMV NEC inh
CC(C)CNc1cc(C(=O)NC2Cc3ccccc3C2)cc(S(=O)(=O)NC(C)C)c1 | -12
COc1ccc2sc(C(=O)O)c(Br)c2c1 | 2
c1ccc2[nH]c(SCc3cn4ccccc4n3)nc2c1 | 3
COc1ccc(-c2[nH]ncc2C)cc1F | -1
COc1cc(F)c(C(C)C)cc1-c1ccc(C(F)(F)F)cc1CN1C(=O)OC(c2cc(C(F)(F)F)cc(C(F)(F)F)c2)C1C (configuration not stated) | 9
N=C(N)N | 9&-46
CC1CC(C(=O)O)C2CC[C@]3(C)C(=CC[C@H]4[C@@]5(C)CCC(O)C(C)(C)[C@@H]5CC[C@]43C)[C@H]2C1C (some centres not stated) | -34
CC1CC(OCC(O)CN2CCN(Cc3ccc(Cl)cc3)CC2)CC(C)(C)C1 (configuration not stated) | 0
COC(=O)c1c(N2C(=O)C=CC2=O)sc2c1CCC(C(C)(C)C)C2 (configuration not stated) | 6
CN(C)c1ccc(C(=O)Nc2nc(-c3ccccc3)cs2)cc1 | 0
Cc1ccc(S(=O)(=O)N2CCN(Cc3ccccc3)CC2)s1 | 3
N#CC1=C(SCC(=O)Nc2ccc(F)cc2)NC(=O)CC1c1ccc(F)cc1 (configuration not stated) | -15
Cc1ccccc1OCC(=O)Nc1ccc(S(=O)(=O)NC(C)(C)C)cc1 | -3
NC(=NCCc1ccc(I)cc1)SCCCC1CNCN1 (configuration not stated) | -11
c1ccc(OCCn2c(-c3ccco3)nc3ccccc32)cc1 | 0&-9
CCCCn1nnnc1NC(=O)N1C2CCCCC1CCC2 | -21
O=C1OC(Nc2nccs2)c2ccccc21 (configuration not stated) | -21
CCOc1ccc(C(=O)N=c2sc3cc(Cl)ccc3n2C)cc1 | -2
CC(NC(=O)Cc1ccc(F)cc1)C(c1cccs1)N1CCOCC1 (configuration not stated) | -13
Cc1nc2sc(C(c3cccc(F)c3)N3CCOCC3)c(O)n2n1 (configuration not stated) | -19
COc1ccc(-c2csc3ncn(-n4c(C)ccc4C)c(=O)c23)cc1OC | -3

Next section:
SMILES	HCMV NEC inh
COc1ccc2cccc(N3CCN(CCNC(=O)c4ccc(F)cc4)CC3)c2c1	-21
CCOc1ccc2c(c1)-c1c(ssc1=S)C(C)(C)N2	-26
O=c1c(-c2ccccn2)coc2cc(O)cc(O)c12	-2
CC(C)OC(=O)C(C(=O)OC(C)C)=C1SC=CS1	3
COc1cc(NC(=O)c2cc3cccc(OC)c3o2)cc(C(=O)Nc2cccc(C(F)(F)F)c2)c1	-13
CCOC(=O)c1ccccc1NC(=O)CSc1ncnc2ccccc12	2
Cc1ccsc1/C=c1/sc2nc(-c3cccs3)nn2c1=O	-4
Cc1ccc(S(=O)(=O)Nc2ccc(O)c(C(=O)O)c2)c(C)c1	9&-12
O=C(Cc1ncc(C(F)(F)F)cc1Cl)NCCN1CCCCC1	-9
COC(=O)C1=C(NC(C)=O)CCS1	-49&-56
Cc1ccc(NC(=O)c2ccc(F)c(S(=O)(=O)N3CCCC3)c2)cc1F	0
CN(C)CCNc1oc(-c2ccc(Cl)cc2)nc1C#N	7
Cc1cc(OC(C)C(=O)N(Cc2ccccc2Cl)C2CCS(=O)(=O)C2)ccc1Cl (configuration not stated)	1
O=S(=O)(Cc1ccc(Cl)cc1)c1c[nH]c2ccccc12	2
CCOC(=O)c1c(C)c(C(=O)NC2CCCCC2)c(C)n1C	-12
O=C(CSC1=NCCS1)Nc1nnc(-c2ccccc2Cl)s1	-11
CC1CN(C(=O)c2ccccc2Cl)CCN1C(=O)c1ccccc1Cl (configuration not stated)	0
CNc1cc(OC)c(C(=O)N[C@@H]2CCN(Cc3ccccc3)[C@@H]2C)cc1Cl (racemic)	-2
O=C(O)c1ccc2cc(-c3ccc(O)c(C45CC6CC(CC(C6)C4)C5)c3)ccc2c1	-115
CCOC(=O)CCCN1C(=O)/C(=C/c2ccc(OC)cc2)SC1=S	-25
c1ccc(NCc2ccc(CNc3ccccn3)cc2)nc1	-14
CC1(C)CC(=O)C2=C(C1)OC1=C(C(=O)CC(C)(C)C1)C2c1ccccn1	-8
COc1ccc(-n2ccnc2SCC(=O)NCc2ccccc2)cc1	0
CC(Oc1ccc2c(c1)OCO2)C(=O)N1CCCCC1CCN1CCCC1=O (configuration not stated)	6
CC(=O)Nc1ccc2nc(NC(=O)c3cc(Cl)ccc3Cl)sc2c1	-10
CCCCC[C@H](O)/C=C/[C@H]1C2COC(C2)[C@@H]1C/C=C/CCCC(=O)O (some centres not stated)	-13&-13
c1ccc(CNc2ncnc3sccc23)cc1	-12
CC(C)[C@@H]1NC(=O)[C@@H]2C[C@H](NC(=O)c3cccc(Cl)c3)CN2C1=O	13
O=C(CSc1c[nH]c2ccccc12)NC1CCCCC1	-12
Cc1nn(C)c(C)c1-c1ccnc(NCC(C)Oc2cccnc2)n1 (configuration not stated)	-8
Cc1[nH]c2ccccc2c1C(O)c1ccccn1 (configuration not stated)	9
CCOC(=O)C(C)Sc1nnc(NC(=O)c2c(F)cccc2Cl)s1 (configuration not stated)	-10
Cc1nc(N)nc(SCc2ccccc2Cl)c1Cl	-2
CC1CCN(C(=O)c2ccc(C(=O)N3CCC(C)CC3)cc2)CC1	6
CN1CCCC1CCNC(=O)[C@H]1CNC[C@@H](COc2cccc(F)c2)C1 (some centres not stated)	-6
CC(C)(C)N=C(NS(=O)(=O)c1cccs1)c1ccccc1	-9
CSc1ccccc1C(=O)N1CCc2[nH]nc(COc3ccccc3)c2C1	1&1
O=C(O)CCCNc1ccccc1C(=O)O	-5
NC1=NC(=O)C(=Cc2cccc(-c3ccc(S(N)(=O)=O)cc3)c2)S1	2
CCOC(=O)N=c1oc2ccccc2o1	-17
CCCCc1ccc(-c2nc3ccccc3c(=O)o2)cc1	-14
CC1CCCC(C)N1C(=O)c1ccccc1C(=O)O (configuration not stated)	-9
CN(C)C1C(=O)C(C(=O)NCN2CCCC2)=C(O)[C@@]2(O)C(=O)C3=C(O)c4c(O)cccc4[C@@](C)(O)C3CC12 (some centres not stated)	26
O=C(Nc1ccccc1-c1cn2c(CN3CCNCC3)csc2n1)c1cnc2ccccc2n1	-72
OC(COCCC12CC3CC(CC(C3)C1)C2)CN1CCCC1 (configuration not stated)	-14
Cc1cc2cc(CNC(=O)c3ccccc3)ccc2[nH]1	2
CC(C)c1ccc(NC(=O)CSC2=NNC(c3ccccn3)S2)cc1 (configuration not stated)	-17
Cc1sc(NC(=O)CCC(=O)O)c(C#N)c1C	-8

Look-ups from the entries so far:
CCCCc1ccc(-c2nc3ccccc3c(=O)o2)cc1 @ HCMV NEC inh: -14
Cc1cc2cc(CNC(=O)c3ccccc3)ccc2[nH]1 @ HCMV NEC inh: 2

(more compounds)
SMILES	HCMV NEC inh
C=C(C)CSC1=C(C#N)C2(CCCCC2)C(C#N)C(=O)N1 (configuration not stated)	-10
O=CC(O)C(O)C(O)C(O)CO (configuration not stated)	-17
COc1ccc(/C=C/C(=O)Nc2sc(C)c(C)c2C(N)=O)cc1	-12
CCc1ccc2c(C(F)(F)F)cc(=O)oc2c1	-2
O=C1CN(c2ncnc3sccc23)CCN1C1CCCC1	43&43
NCC(c1ccco1)c1c[nH]c2ccccc12 (configuration not stated)	-6
O=C1CCC=CN1c1cn[nH]c1-c1ccc(Cl)cc1	-11
Nc1nc(=S)c2ncn([C@@H]3O[C@H](CO)[C@@H](O)[C@H]3O)c2[nH]1	-29
CC(=O)Nc1ccc(S(=O)(=O)NCC2CCCO2)cc1 (configuration not stated)	-10
CCN1CCN(C(c2cccs2)C(C)NC(=O)c2ccc(F)cc2)CC1 (configuration not stated)	2
Cc1c(C(F)(F)F)nc(-c2ccc(CN(C)Cc3ccccn3)cc2)[nH]c1=O	-14
O/N=C(\Cc1cscn1)c1ccc(O)cc1O	-13
O=C(O)/C=C\c1cccn1-c1nccs1	-22
Cc1ccccc1C1CCCN(C(=O)c2cc(C(C)C)no2)C1 (configuration not stated)	-24
COc1ccc(N=C2NC(=O)C(Cc3ccc(C)cc3)S2)cc1 (configuration not stated)	-16
N#CC(=C1CCCC1)c1nc(-c2ccccc2)cs1	1
CC(=O)SCC(=O)N=c1sc2ccccc2n1C	-21
O=C(Cc1ccccc1)Nc1nnc(-c2ccccc2)o1	-4
O=C(NCc1ccc(F)cc1)/C(=C/c1cccs1)c1ccccc1	14
COc1ccc(-n2[nH]c3c4c(ncc3c2=O)CCCCC4)cc1	-56
c1ccc2c(Cc3c[nH]c4ccccc34)c[nH]c2c1	4
Cc1nn(C)cc1-c1ccnc(NCC(C)Oc2cccnc2)n1 (configuration not stated)	36&36
C#CCCCCCCCCCCCCCCCC(=O)O	-14&-14&-11
CCCCC(CC)COC(=O)CC(C(=O)OCC(CC)CCCC)S(=O)(=O)O (configuration not stated)	12
CCCCCCCCCCCCCCCCCCCCCCCCC(=O)OC	-13&-13
O=C1CCCN2N=C(SCC(=O)N3CCc4ccccc43)SC2=N1	-14
CC(C)(C)NC(=O)c1cc(-c2ccco2)[nH]n1	-17
O=C(NCCO)c1cc2cc(Br)ccc2oc1=O	-66
Nc1nc(-c2ccc(NC(=O)c3ccccc3)cc2)cs1	-53
Oc1ccc(-c2ccccc2)cc1CN1CCN(c2ccccc2)CC1	-12
Nc1ncccc1OCc1ccccc1	-4
CC(=O)Nc1ccc(-n2nncc2-c2ccco2)cc1	-5
O=C(NO)c1cc(OCC(F)(F)F)ccc1OCC(F)(F)F	-12
COc1cc(C=Cc2ccc(O)cc2)cc(OC)c1	-52
CS(=O)(=O)c1ccc(C(=O)Nc2ccc(Cl)c(-c3ccccn3)c2)c(Cl)c1	-10&-20
CCn1c(CCCNC(=O)c2cccs2)nc2ccccc21	-6
CC(C)N(C)C(=O)c1cc(-c2cnc(C(C)(C)C)nc2)nc2cc(F)ccc12	-26
COC(=O)c1c[nH]c(=O)c2ccccc12	-8
C=CCn1c(CCNC(=O)c2ccccc2)nc2ccccc21	-6
Cc1c(Cl)cccc1NC(=O)c1cc2ccccc2oc1=O	-9
O=C(Cc1ccccc1)Nc1ccc(O)c(-c2nc3ccccc3s2)c1	-5
CCN1CCN(C(c2cccs2)C(C)NC(=O)c2ccncc2)CC1 (configuration not stated)	-2
Cc1nc2sc(C(c3ccc(F)cc3)N3CCC(O)CC3)c(O)n2n1 (configuration not stated)	-21
CC(C)[C@H](N)C(=O)OCC(CO)OCn1cnc2c(=O)[nH]c(N)nc21 (some centres not stated)	-41
Fc1ccc(C(Nc2ccccn2)c2c[nH]c3ccccc23)cc1 (configuration not stated)	-6
CCOC(=O)c1c(NC(C)=O)sc2c1CCN(C(C)C)C2	-22
Cc1csc2nc(CSc3nnnn3-c3ccccc3)cn12	-26
Cc1ccc(C(=O)Nc2nnc(-c3ccccc3)o2)cc1C	2
O=C(Nc1nc2ccc(Cl)cc2s1)c1cccs1	4
